# VDR inhibitor: Inhibitors of the vitamin D receptor (VDR): qHTS | 400,000 compounds, 0.93% hits | Potency, µM, inactives show max response, negative = inhibition, hits mostly inhibitors | Vitamin D3 receptor (Homo sapiens), P11473 | VDR-SRC2-3 peptide fluorescence polarization, 2 h; active = well fitted inhibition curve with a large enough effect; inconclusive = small, poorly fitted or top-dose-only effect, or another doubt; inactive = no such curve, though single readings can be large or run the other way; also: series mostly up to about 120 µM
# Target sequence (P11473 whole entry, looked up): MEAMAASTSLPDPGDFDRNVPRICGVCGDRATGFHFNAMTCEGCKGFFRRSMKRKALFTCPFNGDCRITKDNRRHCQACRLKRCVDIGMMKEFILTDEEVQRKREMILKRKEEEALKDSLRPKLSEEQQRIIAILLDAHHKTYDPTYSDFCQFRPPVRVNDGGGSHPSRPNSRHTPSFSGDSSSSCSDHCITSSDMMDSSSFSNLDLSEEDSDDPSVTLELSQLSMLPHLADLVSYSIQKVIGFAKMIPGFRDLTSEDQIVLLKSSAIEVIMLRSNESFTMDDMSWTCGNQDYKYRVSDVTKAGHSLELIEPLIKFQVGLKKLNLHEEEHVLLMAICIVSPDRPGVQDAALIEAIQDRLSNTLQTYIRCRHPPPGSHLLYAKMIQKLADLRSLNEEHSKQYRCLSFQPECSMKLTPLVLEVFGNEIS
#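 Fluorescence polarization assay measuring small-molecule disruption of VDR binding to the coregulator peptide SRC2-3. Compounds were pin-transferred (23 nl) into the reagent mix and incubated 2 h at room temperature before reading.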
# * marks the source's active call; other numbers are inactive results; ? = inconclusive; & = joins results of further samples. % is scaled to controls: 0 for no effect and ±100 for the full control effect; potency is read from the fitted curve at half-maximal effect. An excerpt; the hit share may differ from the screen's.
# The first four compounds as a preview:
VDR inhibitor | compound
-2% | CCN(CC)S(=O)(=O)c1ccc(N2CCOCC2)c(NC(=O)c2cccc3c(=O)c(C)c(-c4ccccc4)oc23)c1
6% | CCN1CCN(C(=O)c2ccc3c(c2)N(Cc2cc(C)ccc2C)C(=O)c2ccccc2S3(=O)=O)CC1
10% | NNC(=O)c1nc[nH]c1C(=O)Nc1ccccn1
8% | Cc1ccc(NC(=O)C2=CC(c3ccc(C)cc3)=NS(=O)(=O)N2C)cc1

# Main list, repeating the preview:
VDR inhibitor | compound
-2% | CCN(CC)S(=O)(=O)c1ccc(N2CCOCC2)c(NC(=O)c2cccc3c(=O)c(C)c(-c4ccccc4)oc23)c1
6% | CCN1CCN(C(=O)c2ccc3c(c2)N(Cc2cc(C)ccc2C)C(=O)c2ccccc2S3(=O)=O)CC1
10% | NNC(=O)c1nc[nH]c1C(=O)Nc1ccccn1
8% | Cc1ccc(NC(=O)C2=CC(c3ccc(C)cc3)=NS(=O)(=O)N2C)cc1
-1% | COc1cccc(CC(=O)Nc2ccc3nc(Nc4cccc(C(F)(F)F)c4)cc(C)c3c2)c1
-91% | COC(=O)Oc1nsnc1N1CCOCC1
-13% | CCc1cccc(OCCCCNCCOC)c1
-9% | Cn1c(=O)c2c(ncn2CC(=O)Nc2nc3ccc(F)cc3s2)n(C)c1=O
-16% | S=c1[nH]nc(-c2cc(-c3ccccc3)n[nH]2)n1/N=C/c1c2ccccc2cc2ccccc12
8% | COc1cccc(CNC(=O)c2ccc3c(c2)nc2n3CCOC2)c1OC
12% | COc1ccc(C(=O)NC2CCCc3c2cnn3-c2ccc(C)c(C)c2)c(OC)c1OC (configuration not stated)
5% | Cn1c(=O)c(-c2cc(=O)[nH][nH]2)c(O)c2ccccc21
17% | COc1ccc(CCNS(=O)(=O)c2cccc(F)c2)cc1OC
-6% | O=c1c(-c2ccc(F)cc2)nc2cnc(N3CCNCC3)nc2n1Cc1ccc(F)cc1
1% | CCCCOc1cc(NCc2ccccc2)c2ncn(C(C)C)c2c1
2% | CC(C)c1ccc2oc(-c3cccc(NC(=O)c4ccc5c(c4)OCCO5)c3)nc2c1
-4% | O=S(=O)(c1cccc2ccccc12)N1CCSC1
-20% | COc1ccc(-c2nn(C)c3sc(C(=O)N4CCN(c5cccc(C)c5C)CC4)cc23)cc1OC
-11% | Cc1ccc(C2c3c(oc4ccccc4c3=O)C(=O)N2c2ccc(C)cn2)cc1 (configuration not stated)
6% | Cc1ccc(C)c(NC(=O)CSc2nnc([C@@H](N)Cc3ccccc3)o2)c1

# An excerpt from above in order of molecular weight, ascending:
VDR inhibitor | compound
10% | NNC(=O)c1nc[nH]c1C(=O)Nc1ccccn1
5% | Cn1c(=O)c(-c2cc(=O)[nH][nH]2)c(O)c2ccccc21
-4% | O=S(=O)(c1cccc2ccccc12)N1CCSC1
6% | Cc1ccc(C)c(NC(=O)CSc2nnc([C@@H](N)Cc3ccccc3)o2)c1

# Next records.
VDR inhibitor | compound
9% | COc1cccc(CNC(=O)Cc2c(C(=O)O)c(C)cn2C)c1
-6% | O=C(Nc1ccc(C2CC2(Cl)Cl)cc1)c1cccc([N+](=O)[O-])c1 (configuration not stated)
8% | CSc1nc(NCCN(C)C)c2sc3nc(-c4ccco4)c4c(c3c2n1)CCC4
-17% | O=C(CN1C(=O)COc2ccccc21)N(Cc1ccc2c(c1)OCO2)CC1CCCO1 (configuration not stated)
-21% | CC(=O)c1cccc(S(=O)(=O)Nc2cccc(S(=O)(=O)NC3=NCCC3)c2)c1
-7% | CC1(C)Cc2nc3sc4c(SCC(=O)NC(c5ccccc5)c5ccccc5)ncnc4c3cc2CO1
-25% | CCCn1c(=O)[nH]c(=O)c2c1nc(-c1ccccc1)n2CCN1CCOCC1
-4% | CCOc1ccc(CN2CCN(Cc3cnc(N4CCOCC4)s3)CC2CCO)cc1 (configuration not stated)
-4% | CCn1c(CC(=O)Nc2ccc(F)cc2)nnc1SCC(=O)NC1=NCCS1
-7% | CCOc1ccccc1NC(=O)CN1C(=O)NC(Cc2c[nH]c3ccccc23)C1=O (configuration not stated)
14% | Cc1nc2ccccn2c(=O)c1NC(=O)c1ccccc1Cl
-1% | CC(O)CNc1nc2c(c(=O)n(C)c(=O)n2C)n1CCc1ccccc1 (configuration not stated)
10% | Cn1cnnc1SCc1nnc(-c2ccccc2Br)o1
13% | CCCOc1ccc(C(=O)N/N=C/c2c[nH]c3ccc(Br)cc23)cc1
-3% | O=C(NCc1cccs1)c1ccc2ccccc2n1
? | C=CCOc1cccc(C(=O)/C=C2/C(=O)Nc3ccccc32)c1
-20% | COc1ccc(Cl)cc1NC(=O)NCC1CCN(C(=O)OC(C)(C)C)CC1
4% | CCN(CC)c1ccc(C2CC(=O)NC3=C2C(=O)CC(C)(C)C3)cc1 (configuration not stated)
-4% | Cc1ccc(NC(=O)c2cc([N+](=O)[O-])ccc2N2CCOCC2)cc1S(=O)(=O)N1CCOCC1
14% | C=CCN=C(NC#N)SCC(=O)c1cccc(OC)c1
-16% | C=CCSc1nnc(-c2ccccc2NC(=O)CC)c(=O)[nH]1
4% | COc1ccc(C(C(=O)NC2CCCC2)N(CCC(C)C)C(=O)CCC(=O)Nc2cc(C)on2)cc1 (configuration not stated)
-7% | Cc1n[nH]c(C)c1CNCc1c(C(=O)N2CCCCCCC2)nc2ccc(Cl)cn12
-2% | COc1cc(Cl)c(C)cc1NC(=O)CSc1cc(=O)n(C)c2cc(Cl)ccc12
20% | CCOC(=O)N1CCN(Cc2nc3cc(NC(C)=O)ccc3n2C(C)C)CC1
0% | C=Cc1ccc(Cn2c(C(=O)O)c(CNCc3ccc(F)cc3)c3ccc(C)cc32)cc1
-22% | CCOC(=O)CSc1nnc(NC(=O)c2cccc([N+](=O)[O-])c2)s1
-15% | O=C(CCSc1ccc(Cl)cc1)Nc1cccnc1
8%&7% | Cc1ccc(NS(=O)(=O)c2ccc3c(c2)n(C)c(=O)n3C)c(C)c1
3% | CC[C@H](C)[C@H](NC(=O)[C@H](Cc1ccc(O)cc1)NC(=O)[C@H](Cc1cnc[nH]1)NC(=O)[C@H](CCCNC(=N)N)NC(=O)[C@H](CC(C)C)NC(=O)[C@H](C)NC(=O)[C@H](CO)NC(=O)[C@H](Cc1ccc(O)cc1)NC(=O)[C@H](Cc1ccc(O)cc1)NC(=O)[C@H](CCCNC(=N)N)NC(=O)[C@H](C)NC(=O)[C@H](CC(C)C)NC(=O)[C@H](CC(=O)O)NC(=O)[C@H](CCC(=O)O)NC(=O)[C@H](C)NC(=O)[C@@H]1CCCN1C(=O)[C@H](C)NC(=O)[C@H](CC(=O)O)NC(=O)[C@H](CCC(=O)O)NC(=O)CNC(=O)[C@@H]1CCCN1C(=O)[C@H](CC(N)=O)NC(=O)[C@H](CC(=O)O)NC(=O)[C@@H]1CCCN1C(=O)[C@H](CCCCN)NC(=O)[C@H](CO)NC(=O)[C@@H]1CCCN1C(=O)[C@@H](N)Cc1ccc(O)cc1)C(=O)N[C@@H](CC(N)=O)C(=O)N[C@@H](CC(C)C)C(=O)N[C@H](C(=O)N[C@H](C(=O)N[C@@H](CCCNC(=N)N)C(=O)N[C@@H](CCC(N)=O)C(=O)N[C@@H](CCCNC(=N)N)C(=O)N[C@@H](Cc1ccc(O)cc1)C(N)=O)[C@@H](C)O)[C@@H](C)CC
-4% | O=C(c1cccs1)n1nc(NCc2ccccc2)nc1NCc1ccccc1
-12% | CC1Cc2cc(S(=O)(=O)N3CCC(C(=O)NCc4ccco4)CC3)ccc2N1C(=O)C1CCC1 (configuration not stated)
14% | O=C(CNC(=O)c1ccccc1F)Nc1ccc2c(c1)OCO2
-11% | Cc1ccc(CNC(=O)c2ccc(CNS(=O)(=O)c3ccc4c(c3)C(C)(C)C(=O)N4C)cc2)o1
2% | CCOC(=O)c1c(-c2ccccc2)csc1NC(=O)C(C)NCCCN1CCOCC1 (configuration not stated)
-18% | CN(C)C(=C(C#N)C#N)N1CCN(c2ccc(Cl)c(Cl)c2)CC1
-2% | O=C(c1cccs1)N1CCN=C1SCc1cccnc1
8% | COC(=O)c1nnn(-c2nc(N3CCOCC3)nc(N3CCOCC3)n2)c1C
-11% | O=c1[nH]c(=S)ccn1C1OC(CO)C(O)C1O (configuration not stated)
-3% | CCCCN(C)CCNC(=O)c1cc2c(-c3cccc(OC)c3)nn(C)c2s1
-14% | CN(C)c1ccc(P(=O)(Nc2ccc([N+](=O)[O-])cc2)N2CCOCC2)c(NC(=O)c2cccs2)c1 (configuration not stated)
-8% | Cc1nnc(SCC(=O)NCCc2ccccc2)s1
4% | COc1ccc(NC(=O)COC(=O)c2ccc3ccccc3n2)cc1
-20% | COc1ccccc1N1N=C(c2ccc([N+](=O)[O-])cc2)CC1c1ccccc1 (configuration not stated)
1% | COc1ccc(-c2csc3nc(-c4ccccc4OC)oc(=O)c23)cc1
-21% | Cc1noc(/C=C/NCc2cccnc2)c1S(=O)(=O)N(C)CC(=O)N1CCc2ccccc21
12% | Cc1cc(=O)oc2cc(OCC(=O)OCC(=O)Nc3ccccc3Br)ccc12
6% | CCOc1ccc(/C=N/N2CCN(Cc3ccccc3)CC2)cc1
-11% | CCN(CC)C(=O)c1[nH]cnc1C(=O)Nc1ccccc1
-11% | CCOC(=O)c1cnc(-c2ccccc2)nc1Oc1cccc(Cl)c1
3% | O=C(CSc1ccccn1)N1CCN(C(=O)CSc2ccccn2)CC1
-16% | CC(C)c1onc(C(=O)NCCc2ccccc2)c1[N+](=O)[O-]
-8%&3% | Cc1ccc(Nc2cc(=O)[nH]c(=O)[nH]2)cc1C
-2% | O=C1CSC(c2ccccc2)N1c1nc(-c2ccc(Cl)cc2Cl)cs1 (configuration not stated)
-8% | O=C(NC1CC1)C1CC(=O)N(c2ccccc2)C1 (configuration not stated)
2% | CCOC(=O)Cn1c(CN2CCN(C(=O)c3ccco3)CC2)nc2c1c(=O)n(C)c(=O)n2C
-12% | COc1ccccc1CNC(=O)CSc1nnc2c(n1)[nH]c1ccc(F)cc12
-3% | Cc1nc(-c2ccccc2)sc1-c1ccc(SCC(=O)NCc2ccc(Cl)cc2)nn1
-15% | O=C(O)c1ccc(NC(=O)c2ccc3c(c2)C(=O)N(c2ccccc2)C3=O)cc1
-9% | Nc1ccc(-c2nc3nc(N)nc(N)c3nc2-c2ccc(N)cc2)cc1

# (cont.)
VDR inhibitor | compound
50µM* | O=C(O)CN1C(=O)/C(=C\c2cccc(OCc3ccc(Cl)cc3)c2)SC1=S
-19% | Cc1nn(-c2ccccc2)c(OC(=O)c2ccccc2)c1S(=O)(=O)c1ccccc1
9% | COc1ccc(/C=N/n2c(N)nc(-c3ccccc3)c2-c2ccccc2)cc1
7% | COC(=O)N/N=C\c1ccc(OC/C=C/c2ccccc2)cc1
7% | CC(C)(C)OC(=O)N1CCC(c2c(C(=O)O)cnn2-c2ccc(F)cc2F)CC1
50µM* | N#Cc1c(N2CCCCC2)nc(N)c2c(N)nc(SCC(=O)O)cc12
13% | NC(=O)c1ccc(N2CCCCC2)c(N2C(=O)C3C4C=CC(C4)C3C2=O)c1 (configuration not stated)
-7% | Cc1ccccc1NS(=O)(=O)c1ccc(NC(=O)N2CCCCC2)cc1
7% | CN(C)CCCNC(=O)c1cc2sc3ccccc3c2s1
-9% | CCOC(=O)N1CCN(C(=O)c2ccc(Cn3c(=S)[nH]c4cc5c(cc4c3=O)OCO5)cc2)CC1
-25% | CS(=O)(=O)N(CC(=O)N1CCCCCC1)c1ccccc1
-5% | COc1ccc2c(c1)-c1nc(NC(=O)c3ccc(C)cc3)sc1CC2
-6% | CC1CCN(CCCNC(=O)c2cc3sccc3n2C)CC1
-4% | O=C(C[C@@H]1C/C=C\C[C@@H](Cc2ccc(F)cc2)C(=O)OC[C@@H]2CCCN2C1=O)N[C@H](CO)Cc1ccccc1
-10% | CN(CC(=O)OCC(=O)NCC(F)(F)F)S(=O)(=O)c1ccc(Cl)cc1
-11% | O=S1(=O)N=C(N2CCN(c3ccc(F)cc3)CC2)c2ccccc21
26% | COc1cc(/C=C2/NC(=O)N(Cc3ccccc3F)C2=O)cc(OC)c1O
-17% | O=C(NNC(=O)c1ccc(S(=O)(=O)N2CCCC2)cc1)c1ccc(Br)cc1
2% | Cc1cnc(NC(=O)CN(C)S(=O)(=O)c2ccc(Cl)cc2)s1
-3% | CSc1ncccc1C(=O)Nc1nc2ccc(Oc3ccccc3)cc2s1
18% | CCNS(=O)(=O)c1ccc(CCC(=O)O)cc1
0% | COc1ccc(C(C(=O)NC2CCCCC2)N(C(=O)CCl)c2ccc(Cl)cc2)cc1 (configuration not stated)
-5% | COc1cc2c(cc1OC)CN(Cc1nc3ccsc3c(=O)[nH]1)CC2
-10% | CN1CCN(CCCNCc2cn(CCC#N)c3ccccc23)CC1
-1% | CC[C@]12c3[nH]c4cc(CCC(=O)N(C)C)ccc4c3CCN1C(=O)[C@@H](CC(=O)NC(C)(C)C)C[C@@H]2C(=O)N1CCN(C(=O)c2ccco2)CC1
-1% | O=C(c1ccc(N2CCOCC2)c([N+](=O)[O-])c1)N1CCCCC1
-15% | COc1ccc2c(=O)cc(C(F)(F)C(F)(F)F)oc2c1
12% | COc1ccc(C(C(C(=O)c2cccs2)N2CCOCC2)N2CCOCC2)cc1OC (configuration not stated)
-5% | O=C(Nc1nc2ccccc2[nH]1)c1cccc(Br)c1
-3% | CC(=O)Nc1c(C(=O)O)oc2ccc(Cl)cc12
12% | COc1ccc(CNC(=O)CSc2ncc3c(n2)-c2cc(Cl)ccc2N(C)S3(=O)=O)cc1
1% | Cc1cc(C)c2cc(C(O)c3nnnn3Cc3ccccc3)c(=O)[nH]c2c1 (configuration not stated)
4% | O=C(NC(=S)N1CCCCCC1)c1ccc(Cl)cc1Cl

# 3 entries already listed, ordered by their value in VDR inhibitor, ascending:
VDR inhibitor | compound
-5% | O=C(Nc1nc2ccccc2[nH]1)c1cccc(Br)c1
-1% | O=C(c1ccc(N2CCOCC2)c([N+](=O)[O-])c1)N1CCCCC1
12% | COc1ccc(CNC(=O)CSc2ncc3c(n2)-c2cc(Cl)ccc2N(C)S3(=O)=O)cc1
